Assay outcomes (PubChem)
KCNQ2 inh: KCNQ2 potassium channel inhibitors, primary screen, cell-based, CHO-K1, FluxOR thallium flux, B-score (AID 2156); O88943; 20 min; stronger effect = lower value; only compounds with negative scores are shown here; some inactives read as strong as hits; B-score at 10 µM; actives 1.1% (n = 310,000);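 active = fluorescence ratio B-score at most minus 3 library SDs, with starting brightness B-score within 2 library SDs, cut at about -5.5 in these data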
Target sequence (O88943 whole entry, looked up): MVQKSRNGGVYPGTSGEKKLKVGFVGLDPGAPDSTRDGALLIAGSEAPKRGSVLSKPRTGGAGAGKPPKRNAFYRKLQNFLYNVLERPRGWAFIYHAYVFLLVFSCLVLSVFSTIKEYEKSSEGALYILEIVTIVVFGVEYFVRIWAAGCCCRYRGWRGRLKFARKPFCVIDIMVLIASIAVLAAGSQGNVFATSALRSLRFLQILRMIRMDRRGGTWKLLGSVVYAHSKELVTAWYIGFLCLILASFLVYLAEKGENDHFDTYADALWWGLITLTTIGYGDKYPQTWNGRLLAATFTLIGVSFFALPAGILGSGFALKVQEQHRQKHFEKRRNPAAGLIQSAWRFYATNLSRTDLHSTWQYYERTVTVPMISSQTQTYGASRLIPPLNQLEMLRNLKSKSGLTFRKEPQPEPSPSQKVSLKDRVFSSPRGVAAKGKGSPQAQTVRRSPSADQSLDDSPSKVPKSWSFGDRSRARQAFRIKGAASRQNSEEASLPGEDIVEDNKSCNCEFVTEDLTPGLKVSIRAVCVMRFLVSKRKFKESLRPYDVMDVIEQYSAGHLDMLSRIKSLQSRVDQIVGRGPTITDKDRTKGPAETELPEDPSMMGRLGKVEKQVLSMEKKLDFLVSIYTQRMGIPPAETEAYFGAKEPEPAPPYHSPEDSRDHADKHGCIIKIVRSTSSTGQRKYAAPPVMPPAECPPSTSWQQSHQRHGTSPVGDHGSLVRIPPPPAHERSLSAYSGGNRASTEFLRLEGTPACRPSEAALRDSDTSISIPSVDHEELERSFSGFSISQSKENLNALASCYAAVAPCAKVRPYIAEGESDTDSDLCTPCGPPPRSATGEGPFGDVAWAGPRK
KCNQ2 inh baseline: second read-out of KCNQ2 inh, no call of its own (marks repeat the call); B-score; measured here: initial fluorescence intensity artifact check;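 brightness before thallium and not channel activity; 0 = typical well and far values either way flag optical interference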
Active calls of the source: *; i = inactive. Some of the compounds tested; count on the stated rates, not on these rows.

SMILES	KCNQ2 inh	KCNQ2 inh baseline
O=C1NC(=O)C(Sc2ccccc2[N+](=O)[O-])C(=O)N1	i	0.07
O=C(Nc1cccnc1)c1c(O)c2c(n(Cc3ccccc3)c1=O)CCCC2	-5.8*	-1.1*
CN1CC(C(=O)c2ccc(F)cc2)C(c2ccc(F)cc2)C1 (stereo not given)	i	0.13
O=C1CC(=O)N(c2cccc(F)c2)C(=O)N1	i	0.01
COc1cccc(OC)c1C1=NCC(=O)Nc2c1oc1ccc(Br)cc21	i	1.2
CSc1nc(N)c(N=Nc2ccc([As](=O)(O)O)cc2)c(=O)[nH]1	i	0.08
CN(C)C(=O)Oc1ccc(OC(=O)N(C)C)cc1	i	0.64
NC(Cc1ccccc1)c1nc(-c2ccccc2)no1 (stereo not given)	i	-0.45
NC(=S)N/N=C/c1coc2ccccc2c1=O	i	0.67
CC(Cc1ccccc1)NC(=O)C(c1ccc(N)cc1)c1ccc(N)cc1 (stereo not given)	i	-0.48
CC1CN(c2ccc([N+](=O)[O-])cc2Cl)CCN1 (stereo not given)	i	-1.3
O=c1c2ccccc2nc(/C=C\c2ccccc2[N+](=O)[O-])n1-c1ccccc1O	i	0.2
Nc1ccccc1N=Cc1c(O)n(CCC2=CCCCC2)c(=O)[nH]c1=O	i	-0.07
CC(=O)Nc1ccccc1OC(=O)N(C)C	i	1.1
N/C(=N\[N+](=O)[O-])N/N=C/c1ccc(O)cc1	i	0.44
CCC(=NCc1cccnc1)c1c(O)n(-c2ccc(C)cc2)c(=O)[nH]c1=O	i	-0.77
COC(=O)C1CN(C#N)N(c2ccc(Cl)cc2)C12c1ccccc1-c1ccccc12 (stereo not given)	i	-1.4
CN(C)C(=O)Oc1ccc2c(=O)c(Oc3ccccc3Br)coc2c1	i	0.21
CC1CCC/C=C/C2CC(O)CC2C(O)/C=C/C(=O)O1 (stereo not given)	i	-1
CCCCn1nc(C)c(C(=O)O)c1Cl	i	1.6
CCOP(=O)(C#CC(C)(C)C)C(O)(c1ccccc1)C(F)(F)F (stereo not given)	i	-0.51
CC1=NN(c2ccccc2)C(=O)C1/C=C1/C(=O)NC(=O)N(c2cc(C)cc(C)c2)C1=O (stereo not given)	i	-1
CN1C(=O)C(=Cc2ccc(SC3CCCCC3)o2)C(=O)N(C)C1=O	i	0.15
O=C(N/N=C/c1c(O)n(Cc2ccc(F)cc2)c(=O)[nH]c1=O)c1ccccc1O	i	-0.06
CCOc1c(Cl)cc(CNC(C)C(O)c2ccccc2)cc1OC (stereo not given)	i	-2.1

Complete entries from above.
Profile of CC1CN(c2ccc([N+](=O)[O-])cc2Cl)CCN1 (stereo not given) → KCNQ2 inh: i; KCNQ2 inh baseline: -1.3
Profile of O=c1c2ccccc2nc(/C=C\c2ccccc2[N+](=O)[O-])n1-c1ccccc1O → KCNQ2 inh: i; KCNQ2 inh baseline: 0.2

The main list resumes, repeating the 6 entries before the break.
SMILES	KCNQ2 inh	KCNQ2 inh baseline
CCCCn1nc(C)c(C(=O)O)c1Cl	i	1.6
CCOP(=O)(C#CC(C)(C)C)C(O)(c1ccccc1)C(F)(F)F (stereo not given)	i	-0.51
CC1=NN(c2ccccc2)C(=O)C1/C=C1/C(=O)NC(=O)N(c2cc(C)cc(C)c2)C1=O (stereo not given)	i	-1
CN1C(=O)C(=Cc2ccc(SC3CCCCC3)o2)C(=O)N(C)C1=O	i	0.15
O=C(N/N=C/c1c(O)n(Cc2ccc(F)cc2)c(=O)[nH]c1=O)c1ccccc1O	i	-0.06
CCOc1c(Cl)cc(CNC(C)C(O)c2ccccc2)cc1OC (stereo not given)	i	-2.1
CN(C(=O)Oc1cccc2cccnc12)c1ccccc1	i	0.18
CCOC(=O)C1(Cc2ccc(Cl)cc2)CCN(C(C)CCn2cccn2)CC1 (stereo not given)	i	-0.05
O=c1c2ccccc2nc(Cc2ccccc2)n1-c1ccc(O)cc1	i	-1.3
CCCC1(CCC)C(=O)NC(=NCc2ccccc2)NC1=O	-10*	-0.15*
CN1C(=O)C(O)N=C(c2ccccc2)c2ccccc21 (stereo not given)	i	1.4
Cc1cccc(NP(=O)(Oc2ccccc2)Oc2ccccc2)c1C	i	0.12
CCOC(=O)C(O)(c1ccc(N(C)C(=O)COc2ccccc2)cc1)C(F)(F)F (stereo not given)	i	0.69
COc1ccc(Cn2c(O)c(/C=N/NC(=O)c3ccncc3)c(=O)[nH]c2=O)cc1	i	0.45
COC(=O)c1ccc(N2CCN(C)CC2)c([N+](=O)[O-])c1	i	-0.28
O=c1[nH]c(=S)n(-c2ccc(F)cc2)c(O)c1/C=N/N1CCOCC1	i	1.5
CN1CCCC1C(O)(c1ccccc1)c1ccccc1 (stereo not given)	i	-1.8
FC(F)(F)C1=NC(C(F)(F)F)=NP(N2CCOCC2)(N2CCOCC2)=N1	i	1.2
Cc1ccc2c(c1)N(C(=O)CCC(=O)N1CCC3(CC1)OCCO3)CCO2	i	-0.19
CCOc1ccccc1N=C1SCCCN1C	i	0.67
NC(=O)c1ccc(C(=O)Nc2ccc([As](=O)(O)O)cc2)cc1	i	0.23
CCCCc1nc2ccccc2c(=O)n1-c1ccc(O)cc1	i	0.51
Clc1ccccc1CN1CCN(c2ccccc2Cl)CC1	i	1.4
CCNC(=O)[C@H]1O[C@@H](n2cnc3c(N)ncnc32)[C@H](O)[C@@H]1O	i	-1.3
CCOc1cc2c(cc1OCC)-n1cccc1C(c1ccccc1OC)NC2 (stereo not given)	i	0.34
c1ccc([C@@H]2CO2)cc1	i	1.7
CCN(CC)C(=O)c1ccc(NC(=S)NC(=O)CCc2ccccc2)cc1	i	-0.01
CC(C)c1ccc(N2C(=O)CC(=O)NC2=O)cc1	i	0.03
COc1ccc(OC)c(N=Cc2c(O)n(Cc3ccccc3)c(=S)[nH]c2=O)c1	i	-0.11
O=c1[nH]c(=O)n(Cc2ccco2)c(O)c1C=NCCN1CCNCC1	i	1.4
Cc1cccc(-n2c(C)nc3ccccc3c2=O)n1	i	0.45
Additional structures follow.
SMILES	KCNQ2 inh	KCNQ2 inh baseline
O=P(Nc1ccccc1Cl)(c1ccccc1)c1nc2c(s1)CCCC2 (stereo not given)	i	0.82
CN1C(=O)/C(=C\c2ccc(N3CCCCC3)o2)C(=O)NC1=S	i	1
CC(C)n1c(=O)c(C=Nc2ccc(F)cc2)c(O)n(Cc2ccco2)c1=O	i	0.04
O=C(Cc1ccc(Br)cc1)N1CCN(Cc2ccccc2)CC1	i	3.9
O=P1(NC2CCCC2)COc2ccccc2OC1	i	2.5
CC1(C)CN=C(NCc2ccccc2Cl)S1	i	2.5
Cc1cc(OCC(=O)N2CCC(C(=O)O)CC2)c2c3c(c(=O)oc2c1)CCC3	i	-0.31
C1=NCCc2c1[nH]c1ccccc21	i	4.8
C[C@H]1CCCC(=O)CCC/C=C/c2cc(O)cc(O)c2C(=O)O1	i	0.08
CCN(CCNc1ccc([N+](=O)[O-])c2cccnc12)S(=O)(=O)c1ccc(Cl)cc1	i	0.07
COc1cccc(N2CCN(Cc3ccc(Cl)cc3)CC2)c1	i	0.55
COc1ccc(C(C)=O)cc1CC(C(=O)c1ccc(Br)cc1)N(C)C (stereo not given)	i	0.28
COc1ccc(-n2c(C)cc(C(=O)C[N+]34CCN(CC3)CC4)c2C)cc1	i	-0.51
O=c1c2ccccc2nc(-c2ccccc2F)n1-c1ccccc1	i	1.8
CCc1ccc(N2C(=O)NC(=O)/C(=C\c3cc(C)n(-c4cc(C(=O)O)cc(C(=O)O)c4)c3C)C2=O)cc1	i	0.02
Cc1[nH]c2ccccc2c1C(=O)C(=O)N1CCC2(CC1)OCCO2	i	0.17
CC1(C)C2([N+](=O)[O-])CN3CC1([N+](=O)[O-])CN(C2)C3c1ccccn1 (stereo not given)	i	-0.46
O=c1[nH]c(=O)n(C2CCCCCC2)c(O)c1C=NCC1CCCO1 (stereo not given)	i	0.48
O=[N+]([O-])c1ccc2nc(N3CCNCC3)ccc2c1	i	1.9
CCCCn1c(=O)c(C(=O)NCc2ccncc2)c(O)c2ccccc21	i	-0.84
COc1cccc(C2CC3C(=O)C=CC2N3Cc2ccccc2)c1 (stereo not given)	i	2.5
O=C(c1ccc(CS(=O)(=O)c2ccccc2)o1)N1CCC2(CC1)OCCO2	i	-0.57
O=C1NC(=O)C(C/C=C/c2ccccc2)C(=O)N1	i	1.5
COc1ccccc1-n1c(-c2ccccc2Cl)nc2ccccc2c1=O	i	0.33
C[C@@H]1CC[C@H]2[C@@H](C)C(=O)O[C@@H]3O[C@@]4(C)CC[C@@H]1[C@]32OO4	i	2.9

Laid out differently: results already given
Order of values – KCNQ2 inh | KCNQ2 inh baseline
> Cc1[nH]c2ccccc2c1C(=O)C(=O)N1CCC2(CC1)OCCO2
 : i | 0.17
> CC1(C)C2([N+](=O)[O-])CN3CC1([N+](=O)[O-])CN(C2)C3c1ccccn1 (stereo not given)
 : i | -0.46

The results go on:
SMILES	KCNQ2 inh	KCNQ2 inh baseline
CCC(C)(C)n1nnnc1C(c1cccs1)N1CC=C(c2ccc(F)cc2)CC1 (stereo not given)	i	0.68
CC(C)Cc1nnc(NC(=O)CCC(=O)N2CCN(CCOC(c3ccccc3)c3ccccc3)CC2)s1	i	0.79
Cc1nc2ccc(Cl)cc2c(=O)n1-c1ccccc1Cl	i	1.2
CN(C)C1(CNC(=O)c2cc(S(=O)(=O)N3CCOCC3)c(Cl)cc2Cl)CCCCC1	i	0.18
O=C(c1cc(F)ccc1F)C1CCCN(Cc2cc(Cl)ccc2O)C1 (stereo not given)	i	0.03
Cc1cc(C)cc(N2C(=O)NC(=O)/C(=C\C=C\c3ccco3)C2=O)c1	i	1
Cc1ccc(N2C(=O)NC(=O)/C(=C\c3cc(C)n(-c4sc5c(c4C#N)CCCC5)c3C)C2=O)cc1	i	1.1
COc1cccc(CN2CCNCC2)c1OC	i	1.3
COc1ccc(CN2CCCC(C(=O)c3ccc(Cl)cc3)C2)c(O)c1 (stereo not given)	i	-1.8
Cc1ccccc1N1CCN(C2CCCN(C(=O)COc3ccccc3)C2)CC1 (stereo not given)	i	0.21
Clc1ccc(-c2nc3ccc(Cl)cn3c2CN2CCOCC2)cc1	i	1.2
O=c1[nH]c(=O)n(-c2cccc(Cl)c2)c(O)c1/C=N/c1ccccn1	i	1.1
COc1ccccc1-n1c(-c2ccc(C)cc2)nc2ccccc2c1=O	i	-0.22
COC(=O)C1C(OC(=O)c2ccccc2)CC2CCC1N2C (stereo not given)	i	-0.03
O=C1C(=O)c2cccc3cccc1c23	i	-0.02
Fc1ccc(C(OCCN2CCCC2)c2ccc(Br)cc2)cc1 (stereo not given)	i	-0.27
O=c1c2ccccc2nc(/C=C/c2ccccc2)n1-c1ccc(O)cc1	i	-1.8
COc1ccc(-c2cc(=O)oc3c(C)c(OC(C)C(=O)N4C[C@H]5C[C@@H](C4)c4cccc(=O)n4C5)ccc23)cc1 (stereo not given in full)	i	-0.9
Brc1ccccc1CNCCc1ccc2c(c1)OCO2	i	0.35
COc1ccc(Br)cc1CNCCc1ccc2c(c1)OCO2	i	-0.5
Cn1c(O)c(/C=C/C=Nc2ccccc2)c(=O)n(C)c1=S	i	1.4
COc1cc(C(=O)N/N=C/C23CC[C@@H](O)CC2(O)CC[C@@H]2[C@@H]3CCC3(C)C(C4=CC(=O)OC4)CCC23O)ccc1O (stereo not given in full)	i	0.55
Cc1cc(C(=O)Nc2ccccc2)nn1C(C)(C)C	i	0.23
COCCCNC(=O)Cn1cc(/C=C2\C(=O)NC(=O)N(c3ccccc3F)C2=O)c2ccccc21	i	13
O=c1cccc2n1CC1CC2CN(c2ncnc3c2cnn3-c2ccccc2)C1 (stereo not given)	i	1.6
Next section:
SMILES	KCNQ2 inh	KCNQ2 inh baseline
CN(C)C(=O)Oc1ccc(OCc2n(C)c3ccccc3[n+]2C)cc1	i	0.94
CC(C)(C)c1ccc(CN2C(=O)CN=C(c3ccccc3)c3ccccc32)cc1	-7*	-0.09*
COc1ccc(CCNCc2ccncc2)cc1	i	1.4
COc1cccc(NP(=O)(Oc2ccccc2)Oc2ccccc2)c1	i	0.09
O=C(CCC(=O)N1CCC2(CC1)OCCO2)Nc1nnc(C2CCCCC2)s1	i	1.9
COc1ccc(C(=O)C2CCCN(CCO)C2)c(C)c1 (stereo not given)	i	0.55
Oc1ccc(Cl)cc1CN1CCN(Cc2ccccc2)CC1	i	-0.51
O=C1NC(=O)C(=Cc2ccc(-c3ccc(F)cc3O)o2)C(=O)N1	i	0.63
C=CCn1cc(C=C2C(=O)NC(=O)NC2=O)c2ccccc21	i	-0.36
O=C1C2CCCN2C(c2cccs2)N1c1ccccn1 (stereo not given)	i	0.65
CN(C)C(=O)Oc1ccc2oc(=O)cc(-c3cc4ccccc4o3)c2c1	i	-2.2
Cc1ccccc1-n1c(-c2ccco2)nc2ccccc2c1=O	i	0.7
CC1(C)OC(c2ccccc2)=C/C(=C/C=C2C(=O)NC(=O)NC2=O)O1	i	2.4
COC(=O)c1ccc(CN2CCN(Cc3ccccc3)CC2)cc1	i	0.68
CN1C(=O)N(C)C(=O)C(CCc2ccncc2)(CCc2ccncc2)C1=O	i	0.56
CNc1cc(Cl)c2nonc2c1[N+](=O)[O-]	-9.5*	-6*
Cc1csc(=N)n1Cc1ccccc1	i	0.19
Cc1cc(/C=C2\C(=O)NC(=O)N(Cc3ccco3)C2=O)c(C)n1-c1ccc(O)cc1	i	0.01
CCOc1ccc(CN2CCN(C(=O)Cc3ccccc3)CC2)cc1	i	-0.03
Cn1c(O)c(C=Nc2ccc3c(c2)CCC3)c(=O)n(C)c1=O	i	2.5
Cc1cccc(C2=NCC(=O)N(CC(=O)NCc3ccco3)c3sc4c(c32)CCCC4)c1	i	-0.02
CCCCCn1c(=O)c(C(=O)NCCc2ccccc2)c(O)c2ccccc21	i	0.46
Cn1c(O)c(C=Nc2ccccc2-c2ccccc2)c(=O)n(C)c1=O	i	0.14
